Assay outcomes from PubChem BioAssay.
GIRK2 act = opens human GIRK2 potassium channels. P48051. HEK293-GIRK2 thallium flux, Thallos fluorescence. calls only for hits at 25 µM. 0.05% of 63,000 active. AID 1259325;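 active means among the strongest 0.2% of first-round signals and kept after retests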;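 further: first round at about 10 µM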
Target sequence (P48051 whole entry, looked up): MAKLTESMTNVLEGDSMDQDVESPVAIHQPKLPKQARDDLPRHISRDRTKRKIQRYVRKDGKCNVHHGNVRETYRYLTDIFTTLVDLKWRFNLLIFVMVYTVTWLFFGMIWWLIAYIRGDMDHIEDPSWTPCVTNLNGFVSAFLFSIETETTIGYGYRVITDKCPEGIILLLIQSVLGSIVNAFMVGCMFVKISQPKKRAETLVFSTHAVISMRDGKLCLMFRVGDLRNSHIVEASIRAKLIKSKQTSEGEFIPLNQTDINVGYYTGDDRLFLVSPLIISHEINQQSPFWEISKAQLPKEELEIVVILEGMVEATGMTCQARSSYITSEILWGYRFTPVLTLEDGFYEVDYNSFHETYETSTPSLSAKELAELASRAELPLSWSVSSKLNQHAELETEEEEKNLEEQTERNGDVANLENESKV
Calls only; i = inactive. Only part of the results is shown, so the mix of outcomes need not match the whole.

SMILES | GIRK2 act
COc1cccc(CNC(=O)CC2CCCCN2S(=O)(=O)c2ccccc2)c1 (centres undefined) | i
Cc1cc(Cl)cc2sc(N(CCCN3CCOCC3)C(=O)c3cnccn3)nc12 | i
O=C(NCC1CCCO1)C1CCCN(c2nc3c(-c4ccccc4)csc3c(=O)[nH]2)C1 (centres undefined) | i
COc1nn(C)cc1C(=O)N1CCC(Oc2ccc(C(F)(F)F)cn2)CC1 | i
CS(=O)(=O)N1CCC(C(=O)Nc2cnc(Oc3ccccc3F)nc2)CC1 | i
COc1cccc(C(O)CN2CCN(c3cccc(C)c3C)CC2)c1 (centres undefined) | i
O=C(CN1C(=O)c2ccccc2C1=O)Nc1nnc(-c2ccc3c(c2)CCCC3)o1 | i
O=C(CSc1nc2ccccc2o1)N1CCN(CCn2cccn2)CC1 | i
COc1cccc(-c2csc(-n3nc(C)cc3NC(=O)c3cccc(OC)c3OC)n2)c1 | i
CSc1ccccc1NC(=O)C(=O)NCC(O)(c1ccccc1)C1CC1 (centres undefined) | i
Cc1nc2ccccc2n1Cc1ccc(C(=O)NCc2ccc3c(c2)OCO3)o1 | i
CC(Cn1cncn1)C(=O)N1CCN(S(=O)(=O)c2ccccc2)CC1 (centres undefined) | i
CC(O)(CNC(=O)C(=O)Nc1ccc(OC(F)(F)F)cc1)c1ccc2c(c1)OCO2 (centres undefined) | i
Cc1cccc(Cn2c(=O)c3c(nc4n(-c5ccccc5N)c(C)c(C)n34)n(C)c2=O)c1 | i
O=c1[nH]c(SCc2nc(-c3ccccc3)no2)nc2c(-c3ccccc3)c[nH]c12 | i
COC(=O)c1ccc(C(=O)NCCN2CCN(c3ccc(F)cc3)CC2)cc1 | i
O=C(c1cccc(Cl)c1)N1CCN(Cc2nc(-c3ccc(F)cc3)cs2)CC1 | i
CCc1ccc(NC(=O)Cn2ccn(-c3cccc(Cl)c3)c(=O)c2=O)cc1 | i
O=C(NCc1ccsc1)c1cc(=O)c2ccccc2o1 | i
C/C=C\C(=O)Nc1cc(C)nn1-c1nc(-c2cccc(OC)c2)cs1 | i
CCc1ccc2nc(N(CCN3CCOCC3)C(=O)c3ccc4ncsc4c3)sc2c1 | i
CCn1c(=O)c(C(=O)Nc2ccc(C)c(Cl)c2)c(O)c2sccc21 | i
Cc1c(Cl)cccc1NC(=O)c1ccc2nnsc2c1 | i
COc1cccc(N2C(=O)/C(=C/c3ccc(O)cc3)SC2=S)c1 | i
O=C(c1ccc2nsnc2c1)N1CCN(C2=NN=C(c3ccccc3)CS2)CC1 | i
The list continues:
SMILES | GIRK2 act
COc1ccccc1NC(=O)Cn1c(=O)n(CCCCC(=O)NC(C)C)c(=O)c2ccccc21 | i
CS(=O)(=O)N1CCc2nc(NC(=O)Nc3c(F)cccc3F)sc2C1 | i
Cc1nc2cc(NC(=O)Cc3csc(SCC(=O)Nc4ccc(F)cc4)n3)ccc2s1 | i
CSc1ncccc1C(=O)NCC1(O)CCc2ccccc2C1 (centres undefined) | i
COc1cc(C(=O)N2CCCC(c3nnc(-c4cccs4)o3)C2)cc(OC)c1OC (centres undefined) | i
Cc1cc(CN2CCC(CNC(=O)CSCc3ccccc3)CC2)c(C)o1 | i
O=C(NCc1cccc(Cl)c1)c1cn(-c2cc(N3CCSCC3)ncn2)cn1 | i
O=C(CCS(=O)(=O)Cc1ccccc1)Nc1nc(-c2ccccc2)cs1 | i
Cc1cccc(NC(=O)N2CCC(c3nnc(C4CC4)s3)CC2)c1 | i
COc1ccc(C2CCN(C(=O)c3ccc4nsnc4c3)C2)cc1 (centres undefined) | i
COc1cccc(NC(=O)N2CC(c3nc(Cc4ccccc4)no3)C2)c1OC | i
COc1ccc(-c2coc3cc(OC(=O)c4cccs4)ccc3c2=O)cc1OC | i
CCOC(=O)c1c(C)n(C)c2ccc(OC(C)C(=O)OC)cc12 (centres undefined) | i
CCC(C)NC(=O)CCn1c(=O)c2ccccc2n2c(SCC(=O)N(CC)CC)nnc12 (centres undefined) | i
COCC(C)(O)CNS(=O)(=O)c1c(C)nn(C)c1C (centres undefined) | i
O=S(=O)(c1cccc(Cl)c1)N1CC(c2nc(Cc3ccccc3)no2)C1 | i
CC(C)(C)C(O)CCNC(=O)c1ccc(Br)cc1 (centres undefined) | i
O=S(=O)(c1ccc(F)c(Cl)c1)N1CCCC(c2nnc(C(F)(F)F)o2)C1 (centres undefined) | i
O=C(CSc1nc2c(sc(=S)n2-c2ccc(Cl)cc2)c(=O)[nH]1)Nc1ccccc1F | i
O=C(CSC1=NNC2C3CC(c4ccc(F)cc4)NN3C=CN12)NCc1ccccc1 (centres undefined) | i
Cn1cnc2cc(OS(=O)(=O)c3ccc(F)c(Cl)c3)ccc21 | i
O=C(CCC/C=C\C[C@@H]1C(/C=C/[C@@H](O)CCc2ccccc2)[C@H](O)C[C@@H]1O)NC(CO)CO (some centres undefined) | i
CCc1cccc(C)c1NC(=O)CSc1nc2cc(-c3ccccc3)sc2c(=O)n1C | i
O=C(NCCC(O)c1cccs1)C(=O)Nc1ccc2c(c1)OCO2 (centres undefined) | i
COc1ccc(-c2c(-c3ccc(OC)cc3O)n[nH]c2C(F)(F)F)cc1 | i
Continued:
SMILES | GIRK2 act
CC(C(=O)Nc1nc2ccc(Cl)cc2s1)n1nc(-c2ccc(F)cc2)ccc1=O (centres undefined) | i
CCOC(=O)CCC(=O)N1CCN(Cc2nc(C(C)(C)C)cs2)CC1 | i
CCCCC/C=C\C/C=C\CCCC/C=C\CCCC(=O)O | i
COC(=O)c1ccc(NC(=O)CSc2c(C(C)C)cnc3c2c(=O)n(C)c(=O)n3C)cc1 | i
N#C/C(=C\c1ccc(O)c(O)c1)C(N)=O | i
COCCn1c(=O)c2c(nc3n2CCCN3c2cc(OC)ccc2OC)n(C)c1=O | i
COc1cccc(-c2csc(-c3nnn(-c4ccc(C)c(C)c4)c3N)n2)c1 | i
COc1cccc(C(=O)Oc2ccc3c(=O)c(-c4ccc(OC)c(OC)c4)c(C)oc3c2)c1 | i
CCOC(=O)c1cnn2ccc(NC(=O)COc3ccc(Cl)cc3Cl)cc12 | i
CCCCn1c(-c2ccccc2)nc2oc3cc(OC)ccc3c(=O)c2c1=O | i
CSCC(C)(O)CNS(=O)(=O)c1ccc(F)cc1 (centres undefined) | i
COc1cccc(CNC(=O)c2nnn3cc(C)[nH]c(=O)c23)c1OC | i
Cc1nc(-c2nnn(-c3ccc(F)cc3)c2C)sc1C(=O)NC1CCCC1 | i
CC(C)(C)c1cc(NC(=O)c2cc(-c3ccccc3)on2)on1 | i
COc1cccc(-c2cc(C(=O)N3CCN(c4cccc(Cl)c4Cl)CC3)n(C)n2)c1 | i
CNC(=O)CCc1csc(NC(=O)NC2CCCCC2)n1 | i
CCOC(=O)c1oc2ccccc2c1NC(=O)C1CCCC1 | i
CCCCn1c(=O)c2c(nc3n2C(C)C(C)=NN3)n(C)c1=O (centres undefined) | i
COc1ccc(Cl)cc1NC(=O)N1CCc2nc(NC(=O)c3cc(C)on3)sc2C1 | i
COc1ccc(-c2nnc3c4cnn(-c5ccccc5C)c4ncn23)cc1OC | i
COc1ccc(S(=O)(=O)NCCC(=O)N(C)C)cc1N(C)S(=O)(=O)c1ccc(Cl)cc1 | i
CCCCN1CC(c2nc3ccccc3n2CCOc2ccc(CC)cc2)CC1=O (centres undefined) | i
O=C(Cn1cnc2c(oc3ccccc32)c1=O)Nc1ccc(Cl)cc1C(F)(F)F | i
COc1ccccc1N1CCN(CC(=O)Nc2ccc3sc(C)nc3c2)C1=O | i
O=C(Cn1nc2ccc(C(=O)NCc3ccccc3)cn2c1=O)Nc1ccc(Br)cc1 | i

Part of the list above in order of length of the SMILES, lowest first.
SMILES | GIRK2 act
N#C/C(=C\c1ccc(O)c(O)c1)C(N)=O | i
CSCC(C)(O)CNS(=O)(=O)c1ccc(F)cc1 (centres undefined) | i
CNC(=O)CCc1csc(NC(=O)NC2CCCCC2)n1 | i
CCCCC/C=C\C/C=C\CCCC/C=C\CCCC(=O)O | i
CC(C)(C)c1cc(NC(=O)c2cc(-c3ccccc3)on2)on1 | i
CCCCN1CC(c2nc3ccccc3n2CCOc2ccc(CC)cc2)CC1=O (centres undefined) | i
COc1cccc(CNC(=O)c2nnn3cc(C)[nH]c(=O)c23)c1OC | i
CCCCn1c(-c2ccccc2)nc2oc3cc(OC)ccc3c(=O)c2c1=O | i
Cc1nc(-c2nnn(-c3ccc(F)cc3)c2C)sc1C(=O)NC1CCCC1 | i
COc1cccc(-c2csc(-c3nnn(-c4ccc(C)c(C)c4)c3N)n2)c1 | i
O=C(Cn1cnc2c(oc3ccccc32)c1=O)Nc1ccc(Cl)cc1C(F)(F)F | i
O=C(Cn1nc2ccc(C(=O)NCc3ccccc3)cn2c1=O)Nc1ccc(Br)cc1 | i
COc1cccc(-c2cc(C(=O)N3CCN(c4cccc(Cl)c4Cl)CC3)n(C)n2)c1 | i
COC(=O)c1ccc(NC(=O)CSc2c(C(C)C)cnc3c2c(=O)n(C)c(=O)n3C)cc1 | i
COc1ccc(S(=O)(=O)NCCC(=O)N(C)C)cc1N(C)S(=O)(=O)c1ccc(Cl)cc1 | i

(list continues)
SMILES | GIRK2 act
COCCN(Cc1ccoc1)C(=O)NC(c1ccccc1)c1ccccc1 | i
CSc1ccccc1CN1CCC(CNC(=O)c2ccc(OC(C)C)cc2)CC1 | i
CCCN1C(SCC(=O)NCc2cccc(OC)c2OC)=NS(=O)(=O)c2ccccc21 | i
COc1cccc(S(=O)(=O)NCC(=O)N2CCN(C(=O)c3ccco3)CC2)c1 | i
CCc1cc(S(=O)(=O)Nc2ccccc2C(=O)O)ccc1OC | i
O=C(Nc1nnc(C2CC(=O)N(c3ccccc3)C2)o1)c1ccccc1C(F)(F)F (centres undefined) | i
CCCc1cc(=O)[nH]c(-n2nc(C3CC3)cc2NC(=O)COc2cccc3c2OC(C)(C)C3)n1 | i
Cc1cc(=O)n2[nH]c(-c3ccccc3)c(C)c2n1 | i
O=C(Cc1cccc2ccccc12)NCCN1CCN(c2ccccc2)CC1 | i
COc1nn(C)cc1C(=O)NCCn1nc(-c2ccccn2)n(C)c1=O | i
COC(=O)N1CCN(CCNC(=O)c2cccc3ccccc23)CC1 | i
COc1ccccc1NC(=O)Cn1cccc(-c2nc(-c3ccc(Br)cc3)no2)c1=O | i
O=C(Cc1ccc(NC(=O)c2ccno2)cc1)NC1CC1 | i
Cc1onc(-c2ccccc2Cl)c1C(=O)N1CCN(c2cc(-n3ccnc3)ncn2)CC1 | i
COc1cc(C)ccc1S(=O)(=O)N1CCN(C23CC4CC(CC(C4)C2)C3)CC1 | i
COCCN(Cc1ccoc1)C(=O)c1ccc(-c2ccccc2)cc1 | i
Cc1cccc2c(N=Nc3ccc(S(N)(=O)=O)cc3)c(O)[nH]c12 | i
O=C(NCC1(c2ccccc2)CCOCC1)C1c2ccccc2Oc2ccccc21 | i
Cc1ccc(-n2cc(C(=O)N3CCC(C(N)=O)CC3)nn2)cc1 | i
O=Cc1cccc2[nH]ccc12 | i
O=C(c1nnn(-c2cc(C(F)(F)F)ccc2Cl)c1-c1cccnc1)N1CCCCCC1 | i
CCCCCCCCC/C=C\CCCCCCCC(=O)CC[C@@H](O)COP(=O)(O)O | i
CSc1ccc(NC(=O)c2nnn(-c3ccc(F)cc3)n2)cc1 | i
COc1cccc(NC(=O)c2ccc(S(=O)(=O)N3CCCC3)cc2)c1 | i
Cc1nc(C)c(-c2nnc(NC(=O)C3CC(=O)N(c4ccc(F)cc4)C3)o2)s1 (centres undefined) | i

Ordered by formula weight (smallest number first): three of the compounds above.
SMILES | GIRK2 act
Cc1cccc2c(N=Nc3ccc(S(N)(=O)=O)cc3)c(O)[nH]c12 | i
COC(=O)N1CCN(CCNC(=O)c2cccc3ccccc23)CC1 | i
COc1cccc(NC(=O)c2ccc(S(=O)(=O)N3CCCC3)cc2)c1 | i

(further entries)
SMILES | GIRK2 act
O=C(Nc1cnc(-n2ccnc2)nc1)Nc1ccc2c(c1)OCCO2 | i
Cc1cc(C)n(-c2cc(SCC(=O)Nc3ccc(Cl)cc3C(F)(F)F)ncn2)n1 | i
COc1cccc(-n2c(C)c(C)n3c4c(=O)n(CCN5CCCCC5)c(=O)n(C)c4nc23)c1 | i
O=C(/C=C/c1ccccc1)Nc1nc(CN2CCc3ccccc3C2)cs1 | i
Cn1nc(-c2ccccc2)cc1C(=O)Nc1cc(N2CCCC2)ncn1 | i
CCOc1ccc2ncc(C#N)c(N3CCC(C(=O)Nc4cccc(Cl)c4)CC3)c2c1 | i
C/C(=C1/SC(=NCc2cccs2)NC1=O)c1ccc2ncccc2c1 | i
CN(c1ccc(Cl)cc1)S(=O)(=O)c1ccsc1C(=O)NCc1ccccc1 | i
Cc1cc(=O)n2c(-c3cccc(NC(=O)c4sc(C)nc4C)c3)csc2n1 | i
O=C(Cn1nc2c(c1NC(=O)CC1CCCCC1)CSC2)NCc1ccc(F)cc1 | i
C=CCNC(=O)Nc1nnc(Cc2ccc(OC)cc2)o1 | i
Cc1cccc(C(C)C)c1NC(=O)/C=C/c1ccccc1 | i
CCOC(=O)N1CCN(C(=O)c2csc(-c3cc4ccccc4n3C)n2)CC1 | i
Cc1cc(-c2nnc(NC(=O)c3cc4ccccc4oc3=O)o2)n(C)n1 | i
CCOCC(=O)N1CCC(Cn2cnc3cc(C)c(C)cc32)CC1 | i
CCNC(=O)C1Cc2ccccc2N1C(=O)c1ccc(S(=O)(=O)N2CCCCC2)cc1 (centres undefined) | i
CN(C)S(=O)(=O)c1ccc(C(=O)NCC#CCOc2ccc3c(c2)OCO3)cc1 | i
O=C(c1cc(=O)c2ccccc2o1)N1CCN(C(=O)C2CC2c2cccs2)CC1 (centres undefined) | i
Cc1c(Cl)cccc1NC(=O)NCCCn1ncccc1=O | i
COCCNC(=O)CSc1nc(-c2ccc(OC)cc2)[nH]c1-c1ccccc1 | i
Cc1nc(-c2nnn(-c3ccc(F)cc3)c2C)sc1C(=O)N1CCN(Cc2ccccc2)CC1 | i
COc1ccc(NC(=O)Cn2cc(-c3nc(-c4ccc(C)cc4)no3)ccc2=O)cc1 | i
CC(=O)Nc1ccc(NC(=O)C2Cc3ccc(Cl)cc3C(=O)O2)cc1 (centres undefined) | i
Cc1cccc(-n2c(=O)c3ccccc3n(Cc3ccccc3C#N)c2=O)c1 | i
COc1ccc(C(=O)Nc2nnc(-c3ccncc3)o2)cc1OC | i
